A1 inh = inhibitors of the anti-apoptotic protein A1, read as caspase activation; MEF A1-2A-BIM cells, Caspase-Glo 3/7 luminescence, 3 h; percent of clofoctol response, vehicle zero; caspase activation, % (concentration not given with the values); 330,000 tested, 0.066% active;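 active = over half of replicate activation scores above 10%, or exactly half above 10 with the replicate mean above 10; inconclusive = replicate mean below 10 yet half the replicates above 10; inactive = over half of replicates below 10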;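 note: wells of about 30 µL received 50 nL stock; many hits fall short of the cut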
RanGTP-Impb inh = disruptors of Ran-importin-beta complex formation – biochemical, FRET, CFP-Ran, YFP-importin-beta, homogeneous, primary screen; cell-free CFP-Ran/YFP-importin-beta FRET ratio; inhibition, % (concentration not given with the values); 300,000 tested, 1.1% active;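 active = most replicates above 15%; inconclusive = exactly half above 15%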;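 note: 0% = DMSO wells and 100% = Ran loaded with GDP instead of GTP; wells of about 40 µL received 100 nL stock; the first replicate is given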
Beta apoptosis = blocks beta cell apoptosis; INS-1E cytokine-induced death, ATP luminescence, 48 h; percent of positive-control rescue, neutral wells zero; protection from apoptosis, % (concentration not given with the values); AID 435005; 300,000 tested, 0.8% active;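 active = all replicates at 75% or more, or half of them and the mean; inconclusive = half reach 75% but not the mean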;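 note: 0% = cytokine-treated negative control wells and 100% = positive control rescue; higher means more ATP so stronger rescue from cytokine killing; wells of about 40 µL received 100 nL stock; the first replicate is given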
Vif TR-FRET = HIV-1 Vif–A3G interaction blockers – biochemical, TR-FRET, GST-Vif 1-94, biotin-A3G peptide, dose response retest, primary screen (AID 1117319); 260,000 tested, 0.57% active; TR-FRET GST-Vif / biotin-A3G peptide binding; higher % means a stronger effect; test concentration not given here; strong numbers were not always called active; inhibition, %; hits with a dose series show IC50 in µM;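 active = above the screen mean plus three standard deviations and confirmed in dose response; inconclusive = results disagree or hit not tested in dose response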;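 note: Vif residues 1-94 fused to GST binding biotinylated APOBEC3G peptide 110-148; 0% = full assay without inhibitor and 100% = GST in place of GST-Vif; retest series ran down from 100 µM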
T cruzi inh = T. cruzi replication inhibition. AID 1885. 300,000 tested, 1.4% active. T. cruzi beta-gal in NIH3T3, luminescence, 90 h. inhibition, % (concentration not given with the values);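 active = mean inhibition across valid replicates above about 55%, limit read from the data; inconclusive = mean below that limit but half or more replicates reach it; inactive = mean below it, under half of replicates reach it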;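 note: signal also drops with host cell toxicity which is not excluded here; 0% = plate median of DMSO wells and 100% = zero luminescence signal; higher percent means less beta-gal luminescence so fewer parasites; stock transfer was 50 nL into about 50 µL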
MLL AF4-AF9 inh = inhibitors of human MLL-AF4/AF9 interaction; P42568; AlphaScreen, biotin-AF4 peptide binding to FLAG-AF9; inhibition, % at 10 µM; 350,000 tested, 0.47% active; AID 651704;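 active = every replicate reaching a set inhibition limit, whatever the replicate mean, cut at about 25% in these data; inconclusive = mean inhibition reaches that limit but some replicates miss it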;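 note: 0% = plate neutral control median and 100% = total signal loss; the record names both 10 and 1 µM as test concentration; the first replicate is given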
Target sequence (P42568 whole entry, looked up): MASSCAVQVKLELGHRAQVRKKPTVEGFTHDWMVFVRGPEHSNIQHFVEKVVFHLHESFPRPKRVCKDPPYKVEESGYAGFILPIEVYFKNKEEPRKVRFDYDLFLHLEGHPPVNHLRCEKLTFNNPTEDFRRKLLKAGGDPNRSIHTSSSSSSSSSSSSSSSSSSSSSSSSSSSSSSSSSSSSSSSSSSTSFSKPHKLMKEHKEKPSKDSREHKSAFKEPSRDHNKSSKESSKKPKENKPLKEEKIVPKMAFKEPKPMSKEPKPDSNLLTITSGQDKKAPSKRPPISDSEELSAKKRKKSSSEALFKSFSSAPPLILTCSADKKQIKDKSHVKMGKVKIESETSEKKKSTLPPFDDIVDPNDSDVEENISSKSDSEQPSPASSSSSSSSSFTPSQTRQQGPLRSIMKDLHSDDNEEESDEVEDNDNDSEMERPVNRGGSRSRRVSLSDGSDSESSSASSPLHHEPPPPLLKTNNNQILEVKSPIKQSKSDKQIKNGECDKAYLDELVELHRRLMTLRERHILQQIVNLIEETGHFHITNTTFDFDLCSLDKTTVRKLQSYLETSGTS
Ecoli rRNA inh = inhibitors of bacterial rRNA selective over humanized ribosomes; AID 720706; 350,000 tested, 1.6% active; GFP signal change (wild-type ribosome), % (concentration not given with the values); E. coli WT GFP vs humanized-ribosome RFP mutants, fluorescence, 24 h; stronger effect = lower value; DMSO median 0, no signal -100;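 active = significant combined selectivity score with lowered wild-type GFP, culture density cut under 30%, mutant RFP and density less affected; inactive = any of these conditions unmet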; note: one replicate is shown; some compounds called inactive have numbers as strong as hits
Calb FLC = C. albicans growth modulation with fluconazole; 300,000 tested, 0.57% active; growth inhibition, % (test concentration not listed); C. albicans CaCi-2 (fluconazole-resistant clinical isolate) + fluconazole, Alamar Blue growth, 48 h; AID 1979;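 active = most replicates above 75%; inconclusive = exactly half above 75%; inactive = most below 75%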;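 note: all wells also contain fluconazole at 8 µg/ml as a sub-toxic cotreatment; 0% = median of DMSO wells and 100% = median of geldanamycin control wells; wells of about 8 µL received 7.5 nL stock; the first replicate is given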
Ecoli rRNA inh OD600 = also measured in Ecoli rRNA inh; calls as there; OD600 change, %; measured here: OD600 growth;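 optical density of the mix in the first replicate; 0 = DMSO median and -100 = no signal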
Ecoli rRNA inh RFP = second read-out of Ecoli rRNA inh, no call of its own (marks repeat the call); RFP signal change, %; measured here: RFP humanized mutant strains;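 first replicate; 0 = DMSO median and -100 = no signal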
An asterisk follows results filed as active; ? = inconclusive; / = not tested or not shown. An excerpt. The share of hits here may be higher or lower than overall.

SMILES	A1 inh	RanGTP-Impb inh	Beta apoptosis	Vif TR-FRET	T cruzi inh	MLL AF4-AF9 inh	Ecoli rRNA inh	Ecoli rRNA inh OD600	Ecoli rRNA inh RFP	Calb FLC
CC1CCCN(C(=O)CCNS(=O)(=O)c2ccc3c(c2)oc(=O)n3C)C1 (stereo unspecified)	1.3	-0.6	-2.9	0.1%	-6.8	-5.8	9.5	7.2	0.1	-4.9
CC1Cc2ccccc2N1C(=O)CCn1c(=O)sc2ccccc21 (stereo unspecified)	-0.5	-2.6	1.8	/	7.2	-7.8	-7.1	-27.9	-11.5	-4.7
Cc1ccc2nc(CCl)[n+]([O-])c(-c3ccccc3)c2c1	0.0	3.6	1.0	2.1%	-11.8	1.3	3.8	-0.9	-3.7	3.2
O=C(Nc1ccc2c(c1)OCO2)c1ccccn1	-13.4	/	11.4	3.6%	/	0.8	/	/	/	/
COC(=O)c1c(NC(=O)CC2SC(N)=NC2=O)sc(C)c1C (stereo unspecified)	-0.3	-5.4	-9.2	-1.1%	-4.2	-5.0	/	/	/	15.9
O=c1cc(CN2CCN(S(=O)(=O)c3ccccc3)CC2)nc2sccn12	-0.4	3.1	/	10.6%	-2.8	0.2	2.8	0.6	1.4	16.0
CCOC(=O)c1ccc(NC(=O)NNS(=O)(=O)c2cc(OC)ccc2OC)cc1	1.4	3.2	-4.4	/	12.0	1.5	-0.7	5.4	1.9	10.5
O=C1C(c2ccccc2)SC(=Nc2ccccc2)N1S(=O)(=O)c1ccccc1 (stereo unspecified)	0.1	5.8	-2.5	?	/	/	/	/	/	3.1
Cc1noc2ncnc(N3CCCC3)c12	0.6	6.3	-1.5	-8.5%	3.1	-0.1	9.0	5.0	-8.4	10.2
Cc1ccc(C(=O)Nc2ccc(S(=O)(=O)NC3=NCCCCC3)cc2)cc1S(=O)(=O)N1CCOCC1	-0.3	/	-6.4	1.3%	/	1.5	0.1	0.4	5.4	/
Cc1ccc(C)c(S(=O)(=O)N2CCN(C(=O)c3cc(S(=O)(=O)NCc4ccccc4)ccc3C)CC2)c1	0.3	4.7	7.3	/	31.7	-1.8	0.9	0.0	0.3	-8.9
CCOc1ccc(-c2n[nH]c(C)c2-c2ccccc2OC)c(O)c1	1.6	?	/	-0.8%	2.3	/	/	/	/	-4.3
NS(=O)(=O)c1ccc(CNC(=O)c2scc3c2CCCC3)cc1	0.0	-0.1	-10.1	0.9%	-5.0	-2.5	14.5	2.3	-1.2	3.7
COc1ccc(CSCCNC(=S)Nc2ccccc2)cc1Cl	0.3	-0.2	4.1	-2.6%	-5.0	5.4	-35.4	-64.2	-18.9	-17.7
CCCCOC(=O)c1ccc(NC(C)=O)cc1	0.4	1.2	1.4	1.6%	31.1	/	/	/	/	-3.9
Cc1cc(C(=O)CSc2nnc(N)s2)c(C)n1Cc1cccs1	-4.1	?	1.1	/	-4.0	/	/	/	/	-7.4
O=C1CCCC2=C1C(c1ccc(Cl)cc1)C1C(=O)c3ccccc3C1=N2 (stereo unspecified)	0.4	0.7	-4.7	6.4%	43.7	/	/	/	/	16.9
CC(=NNC(=O)Cn1ccc(C(F)(F)F)n1)c1ccc(-n2ccnc2)cc1	-0.1	/	-1.3	-7.7%	/	2.1	1.3	-11.4	-3.5	/
CCC(=O)c1ccc(OCC(=O)Nc2ccccc2N2CCOCC2)cc1	0.5	/	9.1	-6.0%	/	1.6	/	/	/	/
CC1(C)Cc2ccccc2C(NNC(=O)c2ccccn2)=N1	-0.5	6.1	8.9	-3.3%	-3.9	/	/	/	/	-7.5
COc1ccc(-n2cnc3c(sc4nc(N5CCOCC5)c5c(c43)CCCC5)c2=O)cc1	0.2	-2.5	/	11.8%	10.8	-0.5	3.6	6.1	-2.0	22.0
CCOc1ccc(CCNC(=O)COC(=O)c2cc([N+](=O)[O-])ccc2N2CCOCC2)cc1OCC	0.3	3.1	-11.2	/	14.2	-14.8	-7.6	-3.8	6.1	-1.1
COc1ccc(C)cc1NC(=O)N1CCC(CO)(CC2CCCCO2)CC1 (stereo unspecified)	1.1	0.6	-4.5	30.2%	-7.3	2.0	0.1	0.6	1.5	-3.9
CCOC(=O)c1cc(CC)sc1NC(=O)Cc1ccccc1	-0.5	13.0	4.8	21.0%	40.1	/	/	/	/	-4.3
Cc1ccc(S(=O)(=O)Nc2cc3c(C(=O)Nc4ccccc4)c(C)oc3c3ccccc23)cc1	-0.1	4.1	/	16.6%	23.0	12.9	3.0	0.4	3.8	36.6
O=C1CC(c2ccc(Cl)cc2)c2c(O)cc(O)cc2O1 (stereo unspecified)	-1.2	-2.8	-11.5	3.3%	35.0	2.4	-43.7	-37.2	-14.7	-6.0
C#CCOCCOCCOCCNc1nc(N2CCN(C(=O)[C@H]([C@@H](C)CC)n3cc([C@@H](N)CO)nn3)CC2)nc(N2CCN(C(=O)[C@H](CCCCN)n3cc([C@@H](N)C(C)CC)nn3)CC2)n1 (stereo partly specified)	0.1	-0.8	-3.2	/	-4.0	16.8	8.0	6.0	15.8	-17.3
CCN(CC)CCN(C(=O)CN1C(=O)c2ccccc2C1=O)c1nc2cc3c(cc2s1)OCO3	0.1	0.3	-0.8	/	57.4*	-3.1	0.0	3.4	-0.5	4.9
CC1=CC2=NC(=O)/C(=C/c3cccn3Cc3ccccc3)C(=N)N2O1	0.2	-1.2	-0.9	13.7%	-22.7	15.4	-34.9*	-9.2*	3.7*	-29.3
Cc1ccc(-n2ncc3c2CC(C)(C)CC3NC(=O)CCN2CCCCC2=O)cc1 (stereo unspecified)	-0.6	2.1	-5.9	/	4.6	-5.0	2.0	4.2	-2.2	1.9
O=C(O)C1CC1C(=O)N1CCN(c2ccc(Cl)c(Cl)c2)CC1 (stereo unspecified)	0.2	?	7.0	1.1%	6.4	/	/	/	/	/
COc1ccccc1Cc1nnnn1CC(=O)O	0.3	0.2	4.5	5.5%	15.5	/	/	/	/	-11.3
Cc1cc(C(=O)CSc2ccc(F)cc2)cc(C)c1O	0.6	0.9	-4.4	/	-5.2	0.5	-42.2	-61.8	-0.4	-10.6
Cc1csc(SCC(=O)c2c(N)n(C)c(=O)n(C)c2=O)n1	0.4	3.0	/	3.4%	-4.7	/	/	/	/	-24.4
CC1CCCN(S(=O)(=O)CCNC(=O)c2ccc3c(c2)OCO3)C1 (stereo unspecified)	-0.6	0.2	/	1.8%	-7.0	-1.4	7.3	5.9	0.7	0.8
O=C(C[n+]1ccc(/C=N/O)cc1)N(Cc1ccccc1)Cc1ccccc1	-0.2	-2.2	0.8	-5.4%	4.0	2.8	-3.0	-5.1	-1.5	-6.1
O=C(Nc1cccc(N2C(=O)C3C4C=CC(C4)C3C2=O)c1)c1cccs1 (stereo unspecified)	0.0	?	2.7	/	-7.4	-2.7	7.9	3.1	2.5	15.4
O=C(CBr)Nc1c2c(nn1-c1ccccc1)CSC2	4.1	2.8	-0.1	/	-13.1	-8.2	4.1	6.8	2.8	51.5
O=C(Nc1ccc(Cl)c(Cl)c1)Nc1ccccc1O	-7.2	-1.8	5.9	/	-12.2	8.8	-53.6	-77.8	-19.4	25.2
O=C(CC1N=C(Cc2ccccc2)NNC1=O)N/N=C/c1ccc([N+](=O)[O-])cc1 (stereo unspecified)	0.1	-2.3	8.3	-4.0%	-5.5	-9.5	11.1	9.2	0.6	-2.3
O=C(NCc1ccc(Cl)cc1)C1CCN(C(=O)Cc2ccccc2)CC1	0.8	-0.7	-1.9	/	-3.0	3.2	-1.0	5.2	-1.8	-3.4
S=c1[nH]nc(-c2ccccc2Br)n1Cc1ccccc1	0.0	?	1.3	/	0.4	-7.3	-29.8	-37.0	-4.4	12.8
COC(=O)c1ccc(COC(=O)CCC(=O)c2cccs2)cc1	-0.1	-2.9	2.9	/	-13.7	-12.7	-4.2	-8.5	5.2	-5.2
CC(C)(CNC(=O)/C=C/c1ccc(F)cc1)CNC(=O)/C=C/c1ccc(F)cc1	0.5	0.6	-0.2	15.9%	18.2	/	/	/	/	/
COc1cccc(OC)c1C(=O)NC(=S)NCc1cccnc1	0.4	1.4	-8.1	-6.2%	2.9	0.3	2.3	0.1	-0.2	1.9
COc1ccc(CC(=O)n2[nH]c(=O)ccc2=O)cc1OC	-1.2	-0.7	-9.9	21.8%	-14.0	8.2	/	/	/	-4.5
O=C(NNC(=S)NCC1CCCO1)c1cc(Br)ccc1Cl (stereo unspecified)	-0.6	5.2	5.6	1.0%	-25.2	-1.2	0.2	10.4	2.0	7.7
Cc1cc(C(=O)N/N=C/c2ccc(OC(=O)c3ccccc3Br)cc2)n[nH]1	-1.2	2.7	-2.3	-5.4%	-1.7	-2.1	10.2	11.4	1.7	?
NNC(=O)c1ccc(COc2ccc3ccccc3c2)cc1	-0.6	-4.6	-6.7	-6.2%	6.8	-8.6	-4.2	-0.3	0.8	-3.9
O=c1[nH]c(CN2CCN(c3ccc(O)cc3)CC2)nc2scc(-c3ccc(Cl)cc3)c12	1.0	-1.8	7.7	?	19.0	10.1	-24.4*	-16.8*	5.8*	23.9

The results go on.
SMILES	A1 inh	RanGTP-Impb inh	Beta apoptosis	Vif TR-FRET	T cruzi inh	MLL AF4-AF9 inh	Ecoli rRNA inh	Ecoli rRNA inh OD600	Ecoli rRNA inh RFP	Calb FLC
CCc1cc(C(=O)OC)c(NC(=O)c2ccoc2C)s1	0.2	-4.0	-0.4	/	10.2	-1.6	6.8	8.6	1.1	-3.4
CCCC(=O)Nc1nnc(-c2ccccc2)o1	-0.8	9.6	/	-3.8%	-13.7	-12.7	11.4	12.1	-0.3	15.5
O=C(NNS(=O)(=O)c1ccc(Cl)cc1)c1sccc1-n1cccc1	-0.3	-4.1	-0.8	-0.2%	-4.0	/	/	/	/	26.3
O=C(c1cnccn1)N(Cc1cccs1)C1(C(=O)NC2CCCC2)CCCCC1	1.2	-1.5	-10.9	/	1.1	/	/	/	/	7.4
COc1ccc(S(=O)(=O)N2CCCC(C(F)(F)F)C2)cc1 (stereo unspecified)	-1.3	3.2	-3.3	1.8%	-10.4	-0.7	-5.3	1.4	-1.3	1.4
CN1CCN(c2c(F)cc3c(=O)c(C(=O)O)cn4c3c2OCN4C)CC1	0.1	-2.3	-5.9	/	-1.4	-1.3	/	/	/	-2.4
O=[N+]([O-])c1ccc2ncnc(N3CCN(Cc4ccc5c(c4)OCO5)CC3)c2c1	0.3	-0.6	16.0	/	-20.9	12.0	-18.1	-16.1	-2.1	-113.2
CN(C)c1cc[n+](CC(=O)c2ccc(-c3ccccc3)cc2)cc1	0.1	0.4	106.2*	27.8%	55.8*	2.4	-15.4	0.0	1.8	112.3*
O=C(CSc1nnc(-c2ccc(Cl)s2)o1)N1CCc2ccccc21	0.5	2.4	-0.7	/	-3.9	/	/	/	/	-2.7
CCCCOc1ccc(C(=O)OCC(=O)Nc2cc(C)on2)cc1	-0.1	-0.5	-5.6	-0.4%	-6.0	-3.3	9.9	11.0	1.6	?

Screening data as filed in PubChem.
